HNF4A DNA FP – change in binding of human HNF4 alpha to DNA; P41235; HNF4a-FITC DNA binding, fluorescence polarization, 1 h; activity change, % at 10 µM; 360,000 compounds, 0.3% hits; in the data active = activity change above about 30%, passing the limit was not always enough;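 also: controls were the assay level and a saturating level of protein; the project sought stronger binding though the title names inhibitors; some compounds called inactive have numbers as strong as hits; positive values seem to mean higher polarization but the record does not say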
Target sequence (P41235 whole entry, looked up): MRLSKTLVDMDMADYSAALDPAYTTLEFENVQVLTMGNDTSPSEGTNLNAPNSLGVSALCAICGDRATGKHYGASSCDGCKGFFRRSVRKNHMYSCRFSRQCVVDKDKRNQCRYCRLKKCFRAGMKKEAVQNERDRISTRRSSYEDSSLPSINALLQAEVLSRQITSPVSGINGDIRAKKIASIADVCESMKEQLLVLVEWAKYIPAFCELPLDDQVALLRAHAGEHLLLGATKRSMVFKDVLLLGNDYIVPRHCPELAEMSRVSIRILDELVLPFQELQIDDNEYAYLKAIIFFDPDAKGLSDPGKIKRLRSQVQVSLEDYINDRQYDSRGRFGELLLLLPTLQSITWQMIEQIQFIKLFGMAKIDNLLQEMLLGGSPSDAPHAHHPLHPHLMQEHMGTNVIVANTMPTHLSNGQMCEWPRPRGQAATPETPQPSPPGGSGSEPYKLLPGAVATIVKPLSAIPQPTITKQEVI
LANA-H2A inh – blocks KSHV LANA binding to histone H2A/H2B; Q9QR71; cell-free LANA-H2A/H2B peptide, fluorescence polarization; inhibition, % (no concentration beside the values); 320,000 compounds, 0.6% hits; AID 2629; in the data active = inhibition mostly above about 10%, no sharp cut-off; inactive = mostly below about 6.7%;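 also: stock transfer was 7.5 nL into about 10 µL; 0% = median of vehicle wells and 100% = median of positive control wells; one replicate is shown; the record names a cut of 25% in any replicate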
Beta2AR agonist – human beta-2 adrenergic receptor agonism by FAP. response, % (no concentration beside the values). 340,000 compounds, 0.43% hits. P07550. AID 504454. Am2.2-beta2AR cells, FAP receptor internalization, flow cytometry; reference of the scale not given here;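 active = response above a set limit, near 3 SD of response in nonfluorescent compounds, cut at about 42% in these data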;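 also: stock transfer was 100 nL into about 11 µL; a reference agonist was the positive control; negative values mostly stem from fluorescent compounds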
A1 inh – inhibitors of the anti-apoptotic protein A1, read as caspase activation. MEF A1-2A-BIM cells, Caspase-Glo 3/7 luminescence, 3 h; percent of clofoctol response, vehicle zero. caspase activation, % (concentration not given with the values). 330,000 compounds, 0.066% hits. AID 2462;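 active = over half of replicate activation scores above 10%, or exactly half above 10 with the replicate mean above 10; inconclusive = replicate mean below 10 yet half the replicates above 10; inactive = over half of replicates below 10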;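 also: wells of about 30 µL received 50 nL stock; many hits fall short of the cut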
UCH37 inh – human UCH37 deubiquitinating enzyme inhibition; inhibition, % (no concentration beside the values); purified proteasome/UCH37, Ub-AMC cleavage fluorescence; 330,000 compounds, 0.33% hits; Q9Y5K5;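 active = mean of two replicates above 20%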;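 also: 0% = compound-free wells with enzyme and 100% = wells lacking proteasome; stock transfer was 100 nL into about 20 µL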
Target sequence (Q9Y5K5 whole entry, looked up): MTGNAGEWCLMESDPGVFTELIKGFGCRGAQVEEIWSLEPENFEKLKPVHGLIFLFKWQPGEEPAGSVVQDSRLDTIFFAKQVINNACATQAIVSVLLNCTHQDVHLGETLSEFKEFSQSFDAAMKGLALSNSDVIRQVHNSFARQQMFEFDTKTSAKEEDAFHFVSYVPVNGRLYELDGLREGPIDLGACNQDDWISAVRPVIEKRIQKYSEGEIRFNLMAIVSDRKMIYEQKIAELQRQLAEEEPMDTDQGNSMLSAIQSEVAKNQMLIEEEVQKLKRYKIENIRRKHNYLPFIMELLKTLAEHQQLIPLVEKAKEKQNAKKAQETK
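Material: Human UCH37 enzyme supplied as purified proteasome complex | Schedule: 30 min compound-proteasome preincubation then 25 min substrate reaction, room temperature | Detection: AMC fluorescence from Ub-AMC cleavage, excitation 355 nm, emission 460 nm | Benchmarks: Wells without proteasome as full block, compound-free enzyme plus substrate as uninhibited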
Vif TR-FRET – HIV-1 Vif–A3G interaction blockers – biochemical, TR-FRET, GST-Vif 1-94, biotin-A3G peptide, dose response retest, primary screen (AID 1117319). TR-FRET GST-Vif / biotin-A3G peptide binding; higher % means a stronger effect; test concentration not given here; strong numbers were not always called active. one-dose inhibition, %; IC50 in µM for titrated hits. 260,000 compounds, 0.57% hits;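 active = above the screen mean plus three standard deviations and confirmed in dose response; inconclusive = results disagree or hit not tested in dose response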;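 also: Vif residues 1-94 fused to GST binding biotinylated APOBEC3G peptide 110-148; 0% = full assay without inhibitor and 100% = GST in place of GST-Vif; retest series ran down from 100 µM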
E coli growth – blocks Escherichia coli growth. OD600, 23 h; stronger effect = lower value. OD600 absorbance (test concentration not listed). 330,000 compounds, 0.21% hits. AID 1053175;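 active = OD600 absorbance below the run mean of sample wells minus 3.6 SD, in any replicate, cut at about 0.56 in these data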;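 also: stock transfer was 300 nL into about 60 µL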
* hit, by the source's call.

What do the screens show for `CCCCOc1ccc(C(=O)NCC(=O)NCC(c2ccc(F)cc2)N2CCOCC2)cc1` (stereo not drawn)?
HNF4A DNA FP: 0.6; LANA-H2A inh: 0.2; Beta2AR agonist: -4; A1 inh: 0.6; UCH37 inh: 4.6; Vif TR-FRET: -1%; E coli growth: 0.65

What do the screens show for `O=C(c1ccncc1)N1CCN(S(=O)(=O)c2cccc(F)c2)CC1`?
HNF4A DNA FP: 2.4; LANA-H2A inh: 4.5; Beta2AR agonist: -7; A1 inh: 0.6; UCH37 inh: 0.4; E coli growth: 0.75

What do the screens show for `CCOc1ccccc1NC(=O)COC(=O)C1CC1`?
HNF4A DNA FP: -5.0; LANA-H2A inh: 3.9; Beta2AR agonist: -1; A1 inh: 1.0; UCH37 inh: -0.6; Vif TR-FRET: -4%; E coli growth: 0.71

Results for CCCOc1ccc(N2C(=O)CC(N(CCCO)C(=O)CC)C2=O)cc1 (stereo not drawn) ?
HNF4A DNA FP: 2.9; LANA-H2A inh: 5.0; Beta2AR agonist: -3; A1 inh: 0.4; UCH37 inh: 4.4; Vif TR-FRET: -8%; E coli growth: 0.7

What do the screens show for `CCOC(=O)Cc1csc(NC(=O)/C=C/c2ccc(OC)cc2)n1`?
HNF4A DNA FP: -6.5; LANA-H2A inh: -4.8; Beta2AR agonist: 10; A1 inh: -0.7; UCH37 inh: 1.1; E coli growth: 0.66

Results for CCc1ccc(NC(=S)Nc2cccc(OC)c2)cc1 ?
HNF4A DNA FP: 5.2; LANA-H2A inh: -1.5; Beta2AR agonist: 8; A1 inh: 0.0; UCH37 inh: 3.0; Vif TR-FRET: inconclusive; E coli growth: 0.69

How did Cc1[nH]c2ccccc2c1/C=N/NC(=O)c1cc(C(C)C)[nH]n1 do in these assays?
HNF4A DNA FP: -0.4; LANA-H2A inh: 0.2; Beta2AR agonist: -1; A1 inh: -0.7; Vif TR-FRET: -3%

How did Cc1ccc2[nH]c3c(c2c1)CCNC3=O do in these assays?
HNF4A DNA FP: 1.3; LANA-H2A inh: 3.8; Beta2AR agonist: 0; A1 inh: 0.0; UCH37 inh: -55; Vif TR-FRET: -5%; E coli growth: 0.73

How did Cc1cc(NS(=O)(=O)c2ccc(NC(NC(=O)C(C(F)(F)F)C(F)(F)F)(C(F)(F)F)C(F)(F)F)cc2)no1 do in these assays?
HNF4A DNA FP: 0.9; Beta2AR agonist: 1; UCH37 inh: 4.1; Vif TR-FRET: 13%; E coli growth: 0.7

How did Cc1cc(-c2nn(-c3ccccc3)cc2/C=C2\SC(N)=NC2=O)ccc1OC(C)C do in these assays?
HNF4A DNA FP: 1.8; LANA-H2A inh: 2.2; Beta2AR agonist: -1; A1 inh: 0.1; UCH37 inh: -72; Vif TR-FRET: -5%; E coli growth: 0.65

An excerpt taken from the entries so far, as a working copy:
How did Cc1ccc2[nH]c3c(c2c1)CCNC3=O do in these assays?
HNF4A DNA FP: 1.3; LANA-H2A inh: 3.8; Beta2AR agonist: 0; A1 inh: 0.0; UCH37 inh: -55; Vif TR-FRET: -5%; E coli growth: 0.73

How did Cc1cc(NS(=O)(=O)c2ccc(NC(NC(=O)C(C(F)(F)F)C(F)(F)F)(C(F)(F)F)C(F)(F)F)cc2)no1 do in these assays?
HNF4A DNA FP: 0.9; Beta2AR agonist: 1; UCH37 inh: 4.1; Vif TR-FRET: 13%; E coli growth: 0.7

How did Cc1cc(-c2nn(-c3ccccc3)cc2/C=C2\SC(N)=NC2=O)ccc1OC(C)C do in these assays?
HNF4A DNA FP: 1.8; LANA-H2A inh: 2.2; Beta2AR agonist: -1; A1 inh: 0.1; UCH37 inh: -72; Vif TR-FRET: -5%; E coli growth: 0.65

The list goes on:
Results for CC(C)(C)NC(=O)COC(=O)c1cc(F)c(F)cc1Cl ?
HNF4A DNA FP: 2.0; LANA-H2A inh: 3.0; Beta2AR agonist: 4; A1 inh: -1.8; UCH37 inh: 0.4; Vif TR-FRET: 8%; E coli growth: 0.72

What do the screens show for `CC(C)(C)n1ncc2c(=O)n(Cc3ccc(Cl)c(Cl)c3)cnc21`?
HNF4A DNA FP: 3.2; LANA-H2A inh: 0.5; A1 inh: -0.3; UCH37 inh: 0.2; Vif TR-FRET: 0%; E coli growth: 0.73

Results for CN(Cc1nnc(-c2ccc(F)cc2)o1)c1ccccc1 ?
HNF4A DNA FP: 3.0; LANA-H2A inh: 4.1; Beta2AR agonist: -4; A1 inh: -0.8; UCH37 inh: -0.1; Vif TR-FRET: 8%; E coli growth: 0.65

Results for NS(=O)(=O)c1ccc(CCNC(=O)CSc2ccc([N+](=O)[O-])cc2)cc1 ?
HNF4A DNA FP: 1.1; LANA-H2A inh: 2.4; Beta2AR agonist: 1; A1 inh: 0.6; UCH37 inh: 5.8; E coli growth: 0.71

How did CCCOC(=O)c1ccc(NC(=O)C2CCCO2)cc1 (stereo not drawn) do in these assays?
HNF4A DNA FP: 3.8; LANA-H2A inh: 3.7; Beta2AR agonist: 3; A1 inh: -0.6; UCH37 inh: 2.8; Vif TR-FRET: 0%; E coli growth: 0.68

Results for O=C(CSc1nnc(COc2cccc3ccccc23)o1)N1c2ccccc2CCc2ccccc21 ?
HNF4A DNA FP: -1.1; LANA-H2A inh: -2.4; Beta2AR agonist: -10; A1 inh: -0.1; UCH37 inh: -1.7; Vif TR-FRET: inconclusive; E coli growth: 0.74

What do the screens show for `CC(NC(=O)Cc1ccc(S(=O)(=O)N2CCOCC2)s1)c1ccc(Br)cc1` (stereo not drawn)?
HNF4A DNA FP: -1.9; Beta2AR agonist: 0; UCH37 inh: 0.2; E coli growth: 0.66

Results for COCCNC(=S)N/N=C/c1c(C)[nH]c2ccccc12 ?
HNF4A DNA FP: 16; LANA-H2A inh: 3.9; Beta2AR agonist: 4; A1 inh: 0.0; Vif TR-FRET: 2%

How did Cc1ccc(NC(=O)O/N=C/c2ccc(Br)cc2)cc1 do in these assays?
HNF4A DNA FP: 1.0; LANA-H2A inh: -5.1; Beta2AR agonist: 0; A1 inh: 0.6

How did O=C1c2ccccc2NC(c2cccs2)N1NS(=O)(=O)c1ccccc1 (stereo not drawn) do in these assays?
HNF4A DNA FP: 1.6; LANA-H2A inh: -1.5; Beta2AR agonist: 6; A1 inh: -0.3; UCH37 inh: -106; E coli growth: 0.69

What do the screens show for `O=C(NCc1ccccc1Cl)c1cnc2ccccc2n1`?
HNF4A DNA FP: 2.7; LANA-H2A inh: 0.9; Beta2AR agonist: 0; A1 inh: 1.7

How did Cc1ccc(S(=O)(=O)N2CCOC2CNC(=O)C(=O)NCCCN2CCOCC2)cc1 (stereo not drawn) do in these assays?
HNF4A DNA FP: 5.1; LANA-H2A inh: -3.5; Beta2AR agonist: 2; A1 inh: 1.3; UCH37 inh: 0.1; E coli growth: 0.72

What do the screens show for `CCOc1ccc(N2CC(C(=O)N3CCN(C(=O)c4ccco4)CC3)CC2=O)cc1` (stereo not drawn)?
HNF4A DNA FP: -3.1; LANA-H2A inh: 2.4; Beta2AR agonist: 10; A1 inh: 0.0; UCH37 inh: 1.8; Vif TR-FRET: 6%; E coli growth: 0.7

What do the screens show for `CC1CCC2C(=O)N(c3ccccc3OC(=O)c3ccccc3F)C(=O)C2C1` (stereo not drawn)?
HNF4A DNA FP: 0.9; LANA-H2A inh: 2.0; Beta2AR agonist: 2; A1 inh: -1.0; UCH37 inh: 0.2; E coli growth: 0.66

How did CCC(CO)Oc1cc(NCc2ccccc2)c2ncn(C3CCCC3)c2c1 (stereo not drawn) do in these assays?
HNF4A DNA FP: -1.1; LANA-H2A inh: 1.7; Beta2AR agonist: 0; A1 inh: -0.1; UCH37 inh: 1.9; E coli growth: 0.71

How did COc1ccc(-c2oc(/N=C/N3CCOCC3)c(C#N)c2-c2ccc(OC)cc2)cc1 do in these assays?
HNF4A DNA FP: 5.0; LANA-H2A inh: 1.5; Beta2AR agonist: -11; A1 inh: 0.5; Vif TR-FRET: 22%

What do the screens show for `CCOC(=O)c1[nH]c2ccccc2c1NC(=S)Nc1ccccc1`?
HNF4A DNA FP: 1.0; LANA-H2A inh: -2.6; Beta2AR agonist: 4; A1 inh: -0.2; UCH37 inh: 2.7; Vif TR-FRET: -7%; E coli growth: 0.71

What do the screens show for `Cc1nn(S(=O)(=O)c2cccs2)c(C)c1Sc1ccc([N+](=O)[O-])cc1`?
HNF4A DNA FP: 6.3; LANA-H2A inh: -3.9; Beta2AR agonist: 10; A1 inh: 0.5; UCH37 inh: 4.7; Vif TR-FRET: -4%; E coli growth: 0.73

How did O=C(NCCCN1CCOCC1)c1cn(-c2ccccc2)nc1-c1cccs1 do in these assays?
HNF4A DNA FP: 0.2; LANA-H2A inh: -4.1; Beta2AR agonist: -15; A1 inh: -0.4; UCH37 inh: 4.1; Vif TR-FRET: -4%; E coli growth: 0.76

How did CC(C)(C)NC(=O)Cn1c(SCC(=O)NC2CCCCC2)nc2ccccc21 do in these assays?
HNF4A DNA FP: -1.2; LANA-H2A inh: 1.3; Beta2AR agonist: -4; A1 inh: 0.7; UCH37 inh: 1.7; Vif TR-FRET: -5%; E coli growth: 0.67

What do the screens show for `Cc1ccc(-c2cc(-c3n[nH]c(=S)n3C)c3ccccc3n2)cc1`?
HNF4A DNA FP: 5.5; LANA-H2A inh: -1.9; Beta2AR agonist: -13; A1 inh: 0.2; UCH37 inh: 4.3; Vif TR-FRET: -7%; E coli growth: 0.69

How did CC(=O)Nc1ccc(S(=O)(=O)N2CCN(c3nnnn3-c3ccccc3)CC2)cc1 do in these assays?
HNF4A DNA FP: -0.8; LANA-H2A inh: 2.8; Beta2AR agonist: 1; A1 inh: 0.2; UCH37 inh: 2.4; Vif TR-FRET: 1%; E coli growth: 0.73

What do the screens show for `Cc1ccc(C2C(C=Nc3c(C)n(C)n(-c4ccccc4)c3=O)=C(c3ccccc3)Oc3ccccc32)cc1` (stereo not drawn)?
HNF4A DNA FP: -1.4; LANA-H2A inh: 4.9; Beta2AR agonist: 2; A1 inh: 0.9; UCH37 inh: 7.1; Vif TR-FRET: 10%; E coli growth: 0.71

How did CC1=C([N+](=O)[O-])C(c2ccc(O)c(O)c2)NC(=O)N1 (stereo not drawn) do in these assays?
HNF4A DNA FP: -2.1; LANA-H2A inh: 1.3; Beta2AR agonist: 2; A1 inh: -6.2; UCH37 inh: 6.8; Vif TR-FRET: 11%; E coli growth: 0.69

How did C=CCOc1ccc(CNCCO)cc1OCC do in these assays?
HNF4A DNA FP: 2.0; LANA-H2A inh: 2.8; Beta2AR agonist: 8; A1 inh: 0.0; UCH37 inh: -0.3; Vif TR-FRET: -4%; E coli growth: 0.7

How did N#Cc1cccc(NCC(=O)Nc2cccc(S(=O)(=O)N3CCCCC3)c2)c1 do in these assays?
HNF4A DNA FP: -3.9; LANA-H2A inh: 1.9; Beta2AR agonist: -2; A1 inh: -0.2; UCH37 inh: 2.3; Vif TR-FRET: -6%; E coli growth: 0.69

Results for Cc1oncc1C(=O)Nc1ccc2ccccc2c1 ?
HNF4A DNA FP: 0.7; Beta2AR agonist: 5; UCH37 inh: 0.1; E coli growth: 0.67

What do the screens show for `O=C(CSc1cccc2cccnc12)NCc1ccco1`?
HNF4A DNA FP: 1.1; LANA-H2A inh: -0.3; Beta2AR agonist: -3; A1 inh: -0.3; UCH37 inh: -68; Vif TR-FRET: -2%; E coli growth: 0.69

Results for CC1(C)CC[C@]2(C(=O)O)CC[C@]3(C)C(=CC[C@@H]4[C@@]5(C)CC[C@H](O[C@@H]6O[C@H](C(=O)O)[C@@H](O)[C@H](O[C@@H]7OC[C@H](O)[C@H](O)[C@H]7O)[C@H]6O)C(C)(C)[C@@H]5CC[C@]43C)[C@@H]2C1 ?
HNF4A DNA FP: -3.0; LANA-H2A inh: 0.3; Beta2AR agonist: 40; A1 inh: 0.0

Source: PubChem BioAssay (several laboratories)
